# Anaer choline gr: choline-fed anaerobic bacterial growth inhibition. calls only. hit rate 0.2% among 55,000. AID 1963822. Gram-negative bacterium anaerobic choline minimal medium, absorbance growth; hits give low values; many inactives read as strong as hits in the columns shown;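 active = growth z-score on choline under -2 at 7 or 20 h with little or no fall on glycerol, limits in tiers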;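 also: stock transfer was 300 nL into about 50 µL; the organism is E. coli; final concentration not given here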
# Anaer choline gr early: recorded beside Anaer choline gr, whose call it bears; z-score; measured here: choline growth z-score, timepoint 1;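 score of optical density at 7 h as mean of two plates; lower means less growth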
# Active calls of the source: *; i = inactive; & = joins results of further samples. Not all compounds are listed, so the mix of outcomes need not match the whole.
compound	Anaer choline gr	Anaer choline gr early
Cc1ccc(-c2nn(-c3ccccc3)cc2CCC(=O)NCc2ccc(Cl)cc2)cc1	i	-0.49
CN(C)c1ccc(C(CNC(=O)c2cc(-c3ccc4c(c3)CCCC4)on2)N(C)C)cc1 (stereo not given)	i	-1
CCC(C)NC(=O)N1CCCC1c1cc(C)on1 (stereo not given)	i	0.5
COc1cccc(CC(=O)Nc2cccc(-c3ccc4ccccc4n3)c2)c1	i	1.1
CCN(CCCNC(=O)c1cc2c(C)nn(-c3ccc(F)cc3)c2s1)c1ccccc1	i	-0.68
CN(C)C(CNC(=O)c1cc(-c2ccc(Br)cc2)on1)c1ccccc1 (stereo not given)	i	0.17
CC(C)(C)c1ccc(-c2cc(=O)c3cc(NC(=O)c4cccnc4)ccc3o2)cc1	i	0.6
COc1ccccc1CNC(=O)CCC(=O)N1CCSc2ncccc21	i	0.99
Cc1ccc(N2C(=O)c3nccnc3C2=O)c(C)c1	i	-1.2
CCn1c(Cn2cccn2)nc2cc(NC(=O)c3ccc(C)cc3)ccc21	i	1.1
CCNC(=O)C1CCN(c2ccc(F)cc2)C1=O (stereo not given)	i	-0.36
Cc1ccc(-n2ncc3c2ncn2nc(CSc4nc5ccccc5s4)nc32)cc1	i	0.34
Cn1nc(-c2ccccc2F)c2cc(C(=O)Oc3ccccc3)sc21	i	0.34
CN(C)CCCNC(=O)C(=O)NCc1n[nH]c(=O)c2ccccc12	i	-1.9
Cc1nnc2ccc(N3CCOCC3)nn12	i	-0.02
Cc1cc(C)n2nc(CNc3ccccc3)nc2n1	i	-0.5
COc1cccc(NC(=O)CN(C)c2nn3c(NC(C)(C)C)c(-c4ccc(C)cc4)nc3s2)c1	i	-0.14
O=C1C(O)=C(S(=O)(=O)c2ccccc2)C(c2ccc(F)cc2)N1Cc1ccc2c(c1)OCO2 (stereo not given)	i	0.19
COc1ccc(C(=O)Cn2c(=O)n3nc(-c4cc(OC)cc(OC)c4)nc3c3ccccc32)cc1	i	0.93
COc1ccc(NC(=O)CCc2c(C)nn(-c3ccc4nncn4n3)c2C)cc1	i	0.27

# Some of these compounds in order of the Anaer choline gr early value, low to high.
SMILES	Anaer choline gr early
CN(C)CCCNC(=O)C(=O)NCc1n[nH]c(=O)c2ccccc12	-1.9
Cc1ccc(-c2nn(-c3ccccc3)cc2CCC(=O)NCc2ccc(Cl)cc2)cc1	-0.49
COc1ccc(C(=O)Cn2c(=O)n3nc(-c4cc(OC)cc(OC)c4)nc3c3ccccc32)cc1	0.93

# Next records follow:
compound	Anaer choline gr	Anaer choline gr early
Cc1ccc(-c2noc(Cc3nc(-c4cc(C)ccc4C)cs3)n2)cc1	i	-0.43
Cc1cc2nc(CSc3nnc(NC(=O)C4CCCCC4)s3)cc(=O)n2o1	i	-0.21
Cc1nc(Nc2ccc(NC(=O)C(C)(C)C)cc2)cc(N(C)C)n1	i	-0.66
COc1ccc(-n2c(=O)c3ccccc3n(CC(=O)NC3CCCC3)c2=O)c(OC)c1	i	0.16
COc1ccc(Nc2c3c(nc4nc(C)nn24)CCC3)cc1Cl	i	-0.7
CCCC(=O)C1=C(c2ccc(OC)cc2)N(C(=O)CCC)n2c(CC)nnc2S1	i	1.4
Cc1ccc(S(=O)(=O)N2Cc3ccccc3CC2C(=O)NCc2cccc(Cl)c2)cc1 (stereo not given)	i	0.39
CC(C)Sc1nc(=O)n(Cc2ccccc2)c2c1CCC2	i	-0.05
O=C(Nc1ccc(N2CCOCC2)cc1)C1CCN(c2cc(-c3ccc(F)cc3)ncn2)CC1	i	0.14
Cc1ccc(-n2cc(C(=O)N3CCCC3)nn2)cc1	i	-1.1
O=C(NCc1ccccc1)C1CCCN(c2ncnc3c2oc2ccccc23)C1 (stereo not given)	i	-1.4
Cc1ccc(C2CCCCCN2C(=O)Nc2ccc3c(c2)OCO3)s1 (stereo not given)	i	-0.28
Cn1nc(COCc2ccccc2)c2c1CCN(S(=O)(=O)c1ccccc1)C2	i	-0.5
COc1cc(NC(=O)Cn2nc(N(C)C)c3ccccc3c2=O)cc(OC)c1	i	0.42
COc1ccc(-n2nc(C(=O)Nc3ccc(OC)cc3OC)c(=O)n(C)c2=O)cc1	i	0.83
Cc1ccc(-c2csc3c2ncn2c(=O)n(CC(=O)Nc4cc(F)ccc4C)nc32)cc1	i	-0.11
COc1ccc(NC(=O)Cc2ccc(NC3=NC4CS(=O)(=O)CC4S3)cc2)cc1Cl (stereo not given)	i	-1.3
CCN(Cc1ccccc1)Cc1cc(=O)n2[nH]c(-c3cccc(Cl)c3)cc2n1	i	-0.21
CN(C)CCNCc1ccc(-c2cccc(Cl)c2)o1	i	0.14
O=C(NCCc1csc(-c2cccc(F)c2)n1)C1CCCC1	i	-0.34

# Carrying on.
compound	Anaer choline gr	Anaer choline gr early
COc1ccccc1CN1CC(=O)N(c2ccc(C(C)(C)C)cc2)[C@@H]2CS(=O)(=O)C[C@@H]21	i	0.54
CCCCNC(=O)c1ccc2cnn(Cc3cccc(Cl)c3)c2c1	i	0.57
Cc1cc(C)c2c(n1)sc1c(=O)n(CC(=O)Nc3cccc(C)c3C)cnc12	i	0.8
CC(C)Oc1ccc2c(=O)c(-c3ccccc3)coc2c1	i	0.02&0.76
O=c1cc(-c2ccccc2)c2c(O)cc(O)cc2o1	i	-0.29
O=C(COc1ccc(Br)cc1)N1CCC(c2nc3ccccc3s2)CC1	i	0.52
Cc1ccc(C)c(COC(=O)c2nnn(-c3ccc(Br)cc3)c2C)c1	i	-0.42
Cc1ccccc1-c1nc(SCC(=O)NCC2CCCO2)c2c(=O)n(C)c(=O)n(C)c2n1 (stereo not given)	i	-0.29
CCC(=O)Oc1ccc2c(c1)CCC1C2CC[C@@]2(C)C1CC[C@@H]2OC(=O)CC (stereo not given in full)	i	0.38
CCC1CCCCN1S(=O)(=O)c1cc(-c2nnc(C)o2)cs1 (stereo not given)	i	0.38
O=c1[nH]cc(F)c(=O)[nH]1	i	-2.4&-2.8&-3.1
COC(=O)c1cnc(N2CCN(c3ccccc3OC)CC2)c2ccccc12	i	-0.02
C=CCNC(=O)c1ccc2c(c1)S(=O)(=O)N=CN2CCC	i	0.29
Cc1ccc(N(Cc2nc3nc(C)cc(C)n3n2)C(=O)c2ccc(Cl)cc2)cc1	i	1.3
CCOC(=O)CN1C(=O)C(Cc2ccc(O)cc2)N(CC(=O)OCC)C1=O (stereo not given)	i	0.09
Cc1ccc(NC(=O)CSc2c3c(nc4ccc(Cl)cc24)CCCC3)cc1	i	-0.35
CCOC(=O)c1ccc(NC(=NCc2ccncc2)NC(=O)c2cc(OC)cc(OC)c2)cc1	i	-0.58
COCCCNC(=O)Cn1ccc2c(SCc3ccc(F)cc3)nccc21	i	0.97
Cc1ccc(Cn2c(SCC(=O)Nc3oncc3-c3ccc(F)cc3)nc3ccccc3c2=O)cc1	i	0.29
O=C(c1cnc2sccn2c1=O)N1CCN(c2cccc(C(F)(F)F)c2)CC1	i	-0.25

# Five compounds picked at random from the list so far, as already listed:
compound	Anaer choline gr	Anaer choline gr early
O=C(NCCc1csc(-c2cccc(F)c2)n1)C1CCCC1	i	-0.34
Cc1ccc(-n2cc(C(=O)N3CCCC3)nn2)cc1	i	-1.1
Cc1ccc(N(Cc2nc3nc(C)cc(C)n3n2)C(=O)c2ccc(Cl)cc2)cc1	i	1.3
COc1ccc(NC(=O)CCc2c(C)nn(-c3ccc4nncn4n3)c2C)cc1	i	0.27
Cc1cc(C)n2nc(CNc3ccccc3)nc2n1	i	-0.5

# Next compounds:
compound	Anaer choline gr	Anaer choline gr early
Cc1ccc(-c2cc3nccc(-c4cc(C)ccc4O)n3n2)cc1	i	0.53
C=Cc1ccc(Cn2nc(-c3ccc(OC)cc3)c3c(C)onc3c2=O)cc1	i	1.2
Cc1c2c(=O)n(-c3nc4ccccc4s3)[nH]c2cc(=O)n1Cc1ccc(C(=O)O)cc1	i	0.53
CN(C)CCNCc1ccc(-c2ccc(Br)cc2)o1	i	-0.64
CCc1ccccc1NS(=O)(=O)c1c(C)sc(C)c1-c1cc(C(F)(F)F)on1	i	-2.3
Cc1nc(CCNC(=O)[C@H]2CSCN2S(=O)(=O)c2ccc(Br)cc2)cs1	i	0.26
O=C(NCc1ccc2c(c1)OCO2)c1ccc(-c2ccc(F)cc2)nc1	i	1.9
Cc1cc(NC(=O)CCC2CCCCC2)n(-c2ncnc3c2cnn3-c2ccc(Cl)cc2)n1	i	0.3
Cc1nc2ncnn2c(NC2CCN(C)CC2)c1C	i	-0.88
COc1cccc2c1C(=O)c1c(O)c3c(c(O)c1C2=O)C[C@@](O)(C(=O)CO)C[C@@H]3O[C@H]1C[C@H](N)[C@H](O)[C@H](C)O1	i	0.87&0.01&-0.26&0.44
Cc1nc(-n2nc(C)c(Cc3ccccc3)c2C)sc1C(=O)NC(C)C	i	0.41
Cc1cc(N2CCN(C)CC2)n2nc(-c3ccc(C(C)(C)C)cc3)nc2n1	i	-0.4
O=C(CSc1nnc2c3ccccc3nc(-c3ccccc3)n12)Nc1ccccc1	i	-0.57
O=S(=O)(c1ccc(-c2nnc(C3CCCC3)o2)o1)N1CCN(C2CCCCC2)CC1	i	0.77
CC1CCc2nc3ncn(Cc4cc(=O)n5cc(Cl)ccc5n4)c(=O)c3cc2C1 (stereo not given)	i	-1.8
COC(=O)c1cc2ccsc2n1CC(=O)Nc1cccc(Cl)c1C	i	-1.2
Cn1cc(C(=O)N2CCCCC2)c2[nH]c(=O)n(-c3ccccc3)c(=O)c21	i	-0.41
CCOc1ccc(N(Cc2nc3nc(C)cc(=O)n3[nH]2)C(=O)COc2ccccc2)cc1	i	-0.28
O=C(NCc1cccc(Br)c1)c1nc(N2CCOCC2)c2oc3ccccc3c2n1	i	1.4
O=C(c1cc(-c2ccc(F)cc2)on1)N1CCCC1c1ccc(F)cc1 (stereo not given)	i	-1.6

# The listing continues:
compound	Anaer choline gr	Anaer choline gr early
C=CCN(Cc1nc(-c2cccc(C)c2)no1)C(=O)Nc1ccccc1OC	i	1.1
Cc1ccc(NC(=O)C2CCCN(c3ncnc4onc(C)c34)C2)nc1 (stereo not given)	i	-0.4
O=c1c2[nH]c3ccc(F)cc3c2ncn1Cc1nc(C2CC2)no1	i	1.5
CC(C)c1cc(C2CCCN2C(=O)c2cc(C3CCCCC3)no2)no1 (stereo not given)	i	0.6
O=C(NCCCN1CCC(Cc2ccccc2)CC1)C1CC(=O)N(C2CCCC2)C1 (stereo not given)	i	-0.28
Cc1ccc(-c2ccc(-n3nc(C)c(S(=O)(=O)NCCN4CCCCC4C)c3C)nn2)cc1C (stereo not given)	i	-0.61
CC(=O)Nc1ccc(S(=O)(=O)NCCn2c(C)nc3ccccc32)cc1	i	0.02
Cn1ncc(Br)c1C(=O)N1CCCC1c1ccc(F)cc1 (stereo not given)	i	-0.4
CC(C)c1cc(C(=O)N2CCC(c3nc4ccccc4o3)CC2)nn1C1CCS(=O)(=O)C1 (stereo not given)	i	-1.6
Cc1ccc(-c2nn(-c3ccccc3)cc2C2SCC(=O)N2Cc2ccccc2)cc1 (stereo not given)	i	1.6
Cc1nn(-c2nc3ccccc3[nH]2)c2c1C(c1ccccc1F)CC(=O)N2 (stereo not given)	i	-0.11
COc1ccc(N2CCN(S(=O)(=O)c3cc(-c4cnn5c(C)cc(C)nc45)ccc3C)CC2)cc1	i	-2.5
CCOc1ccc(-c2noc(C3CCCN(S(=O)(=O)c4ccccc4)C3)n2)cc1 (stereo not given)	i	0.98
CC(C)Cn1cc(NC(=O)NCC2CCCO2)c2ccccc2c1=O (stereo not given)	i	0.69
Cc1ccc(NC(=O)c2ccc3oc(=O)n(C)c3c2)cc1	i	0.46
COc1ccc(-c2n[nH]c3c2cnc2cc(OC)c(OC)cc23)cc1	i	0.19
O=C(Nc1ccc(Cl)cc1)c1ccc2c(c1)N(Cc1ccccc1)CCS2	i	0.95
Cc1ccc2[nH]c(=O)c(-c3noc(CCC(=O)Nc4nc(C)cs4)n3)cc2c1	i	1.8
COc1ccc(-c2nc(CCNC(=O)c3ccc(OCC(C)C)cc3)cs2)cc1	i	0.62
CCCCc1ccc2nc(NC(=O)OC)[nH]c2c1	i	0.34

# Following part:
compound	Anaer choline gr	Anaer choline gr early
CCN(CC)CCCC(C)Nc1nc(C)cc(Nc2ccc3nc(C)cc(N)c3c2)n1 (stereo not given)	i	0.96
CC(C)c1nc(C(=O)N2CCCN(Cc3noc(-c4ccccc4)n3)CC2)cs1	i	0.34
CNC(=O)c1ccc(-c2nc(CN3CCN(C(=O)Nc4ccc(OC)cc4OC)CC3)c(C)o2)cc1	i	0.57
CCCN1C(=O)c2nc3ccccc3n2CC1(C)C(=O)NC1CCCCC1 (stereo not given)	i	0.23
c1ccc(N2CCN(c3ncnc4sc5c(c34)CCCCC5)CC2)cc1	i	0.25
CCOC(=O)c1c(NC(=O)N2CC(C)Oc3ccc(C)cc32)sc2c1CCCC2 (stereo not given)	i	0.33
Cc1nn(-c2nc3ccccc3o2)c2c1C(c1c(F)cccc1F)CC(=O)N2 (stereo not given)	i	-1.8
Cc1cccc(C(=O)Nc2cnc3c(C)cccn3c2=O)c1	i	0.14
Cc1ccc(CNc2nc3nc(C)c(CCC(=O)Nc4cc(C)ccn4)c(=O)n3[nH]2)cc1	i	0.02
O=C(Nc1ccc(F)cc1)c1nnc(C(=O)N2CCCC(C(=O)NCc3cccnc3)C2)s1 (stereo not given)	i	-0.61
O=C(c1nc(-c2csc(S(=O)(=O)N3CCCCC3)c2)no1)N1CCOCC1	i	-0.25
Cc1cccc(NC(=O)Cc2ccc(NC(=O)N3CCSc4ncccc43)cc2)c1	i	-0.64
O=C(O)C1CCN(c2nc3ccsc3c(=O)n2-c2ccc(F)cc2)CC1	i	-1.3

# Compound activity as filed in PubChem BioAssay.
